Screening data (PubChem)
Sa growth inh = S. aureus growth inhibition at 42 and 30 °C, primary screen, LtaS inhibitor project, RN4220, two temperatures; OD600, 20 h, 42 °C; stronger effect = lower value; relative growth, % (concentration not given with the values); 170,000 compounds, 0.53% hits;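 active means growth at 42 °C up to 50% and 20 or more points under that at 30 °C, or under 10% at both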;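 further: 300 nL library stock went into each well; scaled to the means of positive and negative controls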
HCMV UL50-53 inh = inhibitors of HCMV UL50-UL53 interaction, biochemical, HTRF; HCMV UL50-UL53 nuclear egress complex (human cytomegalovirus); normalized percent inhibition; inhibition, % (no concentration beside the values); 190,000 compounds, 0.15% hits;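 active means both replicates at 50% or more, plus weaker picks with an unusually low signal ratio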;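 further: stock transfer was 100 nL into about 20 µL; 0% = negative control wells and 100% = wells with untagged competitor protein; inactives centre near -12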
GIV-Gai inh = inhibitors of GIV peptide binding to Galpha-i3, primary screen, biochemical, fluorescence polarization, FITC-GIV GBA peptide, rat Galphai3. 210,000 compounds, 0.42% hits. percent of control (FP), % (concentration not given with the values). Guanine nucleotide-binding protein G(i) subunit alpha-3 (Rattus norvegicus), P08753. 90 min; stronger effect = lower value; scaled: aluminum fluoride 0%, vehicle 100%;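 active means replicate mean at 85% of control or lower, very high polarization wells dropped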;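 further: wells of about 15 µL received 100 nL stock; the first replicate is given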
Target sequence (P08753 whole entry, looked up): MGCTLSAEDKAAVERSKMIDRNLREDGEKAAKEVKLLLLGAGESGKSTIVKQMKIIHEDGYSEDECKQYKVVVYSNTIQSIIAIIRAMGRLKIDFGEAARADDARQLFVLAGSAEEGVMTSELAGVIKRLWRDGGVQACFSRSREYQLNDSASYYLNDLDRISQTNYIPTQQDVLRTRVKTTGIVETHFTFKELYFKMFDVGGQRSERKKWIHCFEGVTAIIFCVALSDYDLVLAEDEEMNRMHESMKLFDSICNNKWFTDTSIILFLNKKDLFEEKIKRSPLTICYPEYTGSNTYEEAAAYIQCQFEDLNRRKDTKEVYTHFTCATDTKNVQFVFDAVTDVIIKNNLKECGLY
Sa growth inh second temp = second read-out of Sa growth inh, no call of its own (marks repeat the call); relative growth, %; measured here: growth at 30 °C;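 optical density after 20 h as mean of two plates; 100% = untreated growth and lower means inhibition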
Numbers without * were called inactive; · = no result given; & = joins results of further samples.

SMILES	Sa growth inh	Sa growth inh second temp	HCMV UL50-53 inh	GIV-Gai inh
Cc1noc(C)c1CN1C(=O)NC(Cc2ccccc2)(Cc2ccccc2)C1=O	97	96	-22	·
O=C1Nc2cc(C(=O)N3CCC(N4CCCCC4)CC3)ccc2N2CCCCC12 (stereo not given)	·	·	-19	102
O=C1CCCN1C(=O)CSc1nc(-c2ccccc2)cs1	95	102	-12	·
O=C(CCC(=O)N1CC=C(c2c[nH]c3ccccc23)CC1)NC1CCCC1	111	76	-49	103
COc1ccc2cc(CNc3ccc(C)cc3)c(=O)n(CC(=O)Nc3cccc(Cl)c3C)c2c1	77	90	·	105
O=c1c(N2CCCC2)csc2ccc(F)cc12	78	42	-124&-55	169&149
O=C(CCSc1nc(-c2ccco2)cc(C(F)(F)F)n1)N1CCCCC1	105	89	·	100
CC(C)N(CCCNC(=O)C1CCN(c2nc3cccnc3s2)CC1)Cc1ccccc1	·	·	-30	103
O=C(Nc1cccnc1)c1noc2c1CCc1sccc1-2	·	·	-41	100
CN1c2ccsc2C(=O)/C(=C\Nc2ccncc2)S1(=O)=O	107	81	5	103
COc1ccc(NC(=O)N2CCc3c(sc4c3CCCC4)C2c2ccc(F)cc2)cc1 (stereo not given)	101	88	·	100
CCOC(=O)/C(C#N)=C/c1cn(C(=O)c2ccncc2)nc1-c1ccccc1	76	83	-52	·
COc1ccc(CCC(=O)Nc2ccc3nc(NC(=O)c4ccccc4)sc3c2)cc1	·	·	8	104
O=C(NCc1ccc2c(c1)OCO2)[C@@H](c1ccccc1)N1Cc2ccccc2C1=O	101	82	0	102
CC(=O)Nc1ncc(CN2CCCCC2)s1	102	96	-15	101
CCc1ccc(N2C(=S)N(C(=O)c3cccs3)C3CC2(C)Oc2ccccc23)cc1 (stereo not given)	106	79	·	148
O=C(CN1c2cccc3cccc(c23)S1(=O)=O)Nc1ccccc1	103	90	3	·
CC(C)SCC(=O)Nc1ccc(Br)cc1	93	93	-3	104
CCCCN(CCCC)S(=O)(=O)c1ccc2oc(C(=O)NCc3ccc(C)cc3)c(C)c2c1	115	87	·	105
O=C1C(c2ccccc2)CCCC1c1ccccc1 (stereo not given)	100	88	-25	106

Some entries already given with just Sa growth inh, GIV-Gai inh and Sa growth inh second temp:
SMILES	Sa growth inh	GIV-Gai inh	Sa growth inh second temp
O=C(NCc1ccc2c(c1)OCO2)[C@@H](c1ccccc1)N1Cc2ccccc2C1=O	101	102	82
CC(=O)Nc1ncc(CN2CCCCC2)s1	102	101	96

The main list resumes with the six entries that preceded the break.
SMILES	Sa growth inh	Sa growth inh second temp	HCMV UL50-53 inh	GIV-Gai inh
CC(=O)Nc1ncc(CN2CCCCC2)s1	102	96	-15	101
CCc1ccc(N2C(=S)N(C(=O)c3cccs3)C3CC2(C)Oc2ccccc23)cc1 (stereo not given)	106	79	·	148
O=C(CN1c2cccc3cccc(c23)S1(=O)=O)Nc1ccccc1	103	90	3	·
CC(C)SCC(=O)Nc1ccc(Br)cc1	93	93	-3	104
CCCCN(CCCC)S(=O)(=O)c1ccc2oc(C(=O)NCc3ccc(C)cc3)c(C)c2c1	115	87	·	105
O=C1C(c2ccccc2)CCCC1c1ccccc1 (stereo not given)	100	88	-25	106
COc1nc(NCCO)nc(Nc2ccccc2F)n1	98	108	-13	101
CC1CCCC(C)N1C(=O)Cc1cccs1 (stereo not given)	100	89	-7	·
CCOC(=O)c1c(CC(C)C)csc1NC(=O)C(C)C	93	77	-8	·
COc1ccc(CN(C)CN2C(=O)NC3(CCC(C(C)(C)C)CC3)C2=O)cc1 (stereo not given)	96	96	-7	·
O=C(NCCc1nc(-c2ccccc2)no1)c1cc(-c2ccc3c(c2)CCCC3)on1	·	·	-10	108
CC(C)C1Oc2cc3oc(=O)ccc3cc2/C1=N\O (stereo not given)	100	89	-13	·
Cc1ccc(N(CC(O)Cn2c3ccccc3c3ccccc32)S(=O)(=O)c2ccccc2)cc1 (stereo not given)	108	73	·	100
Cc1cc2c(cc3c(=O)n(CC(=O)N4CCc5ccccc5C4)ncn32)s1	106	105	-4	102
CC(C)N(CCc1ccncc1)C(=S)NC1CCCCC1	113	91	·	100
C=CCSc1nnc(NC(=O)CCNS(=O)(=O)c2ccccc2)s1	93	91	-15	·
Cc1ccc(Cl)cc1N1CCN(C(=O)C2CCCN2S(=O)(=O)c2cccc3nsnc23)CC1 (stereo not given)	110	89	-64	100
CCC(=O)Nc1ccc(-n2cnnn2)cc1	94	97	-12	·
O=C(Nc1c(-c2ccc(F)cc2)nc2ccccn12)c1ccccc1	191	86	·	105
COc1cc(/C=C(\C#N)C(=O)C(C)(C)C)ccc1O	87	92	-73	·
O=C(Cn1c(=O)n(-c2ccc(F)cc2)c(=O)c2sc3ccccc3c21)NC1CCCCC1	92	90	-16	97
CC(=O)N1c2ccc(F)cc2C(C)CC12CCCC2 (stereo not given)	106	118	1	107
O=C(c1cc2c(s1)-c1ccccc1OC2)N1CCCCC1	108	76	-51	99
CCOC(=O)Cn1c(C)cc(=O)c2cccc(C)c21	78	83	-40	101
COc1ccc(OC)c(/C=N/c2ncn[nH]2)c1	91	118	0	92
C=CCC(C(=O)N1CCc2ccccc21)C(=O)N1CCc2ccccc21	87	78	28	97
O=S(=O)(c1cccc2c(Cl)cccc12)N1CCCNCC1	·	·	-50&-41&-70	99
O=C(Nc1ccc(Cl)cn1)c1ccc2c(c1)OCCO2	·	·	-11	103
O=C(CSc1nnc(CN2CCCCC2)o1)Nc1c(Cl)cc(Cl)cc1C(=O)O	110	94	5	·
O=C(CSc1nnc(CN2C(=O)c3cccc4cccc(c34)C2=O)n1-c1ccccc1)NCCCN1CCOCC1	·	·	-108	100
CN(C)C(=O)CCCOc1ccccc1	122	97	-20	100
Cc1cc2c(cc(C(=O)OC(C(=O)NC3CCCCC3)C(C)C)n2C)o1 (stereo not given)	84	86	17	105
CNC(=O)c1ccccc1NC(=O)C1=CSCCO1	100	84	-22	102
O=C(c1ccc(Cl)cc1)N1CC(OCc2ccc(F)cc2)C1	·	·	-21	98
CC(C)(O)C(=O)CCc1ccccc1	95	106	-13	103
Cn1c(=O)oc2cc(S(=O)(=O)CCC(=O)O)ccc21	86	95	-1	115
Cc1onc(-c2ccccc2Cl)c1C(=O)Nc1cc2c(cc1N(C)C)n(C)c(=O)c(=O)n2C	·	·	-30	98
Cc1c(NC(=O)c2cccc([N+](=O)[O-])c2C)cccc1-c1nc2ccccc2[nH]1	·	·	-16	101
CN(Cc1ccccc1)C(=O)CSc1nc2ccsc2c(=O)n1-c1ccc(F)cc1	82	98	·	102
CNC(=O)CCN1C(=O)c2cccnc2Sc2ccccc21	103	104	-9	112
Cn1c(=O)c(-c2noc(C(=O)NC3CCCCC3)n2)nn(-c2ccc(F)cc2)c1=O	·	·	-77	100
Cc1cc(C(=O)C(C)Sc2nnc(N)s2)c(C)n1-c1ccc(Cl)cc1 (stereo not given)	114	85	-18	·
CNC(=S)N(C)CCc1ccc(OC)c(OC)c1	94	95	2	·
CCOC(=O)c1c(C)[nH]c(C)c1S(=O)(=O)N1CCC(C(=O)N2CCN(c3ccccc3)CC2)CC1	106	83	·	98&107
COC(=O)c1cc(S(=O)(=O)N2CCCC2C(=O)Nc2c(Cl)cc(OC)cc2OC)cn1C (stereo not given)	·	·	0	113
COc1ccc(NC(=O)CN2C(=O)C(C)(C)c3cc(S(=O)(=O)N4CCCC4)ccc32)c(OC)c1	·	·	-31	105
COc1ccc(OCCSc2nc3ccccc3n2C)cc1	91	72	-8	·
O=C(NCc1ccc(Br)cc1)C1CCN(c2ccc(-c3ccc(F)cc3)nn2)CC1	·	·	-17	101
CC(C)(C)OC(=O)N1CCCC(C(=O)O)C1 (stereo not given)	84	92	-23	·
CCOC(=O)Cn1c(=O)n(-c2ccccc2)c(=O)c2cc3c(nc21)CC(C)(C)OC3	·	·	-23	98
Cc1nnsc1-c1nc(CSc2ccccn2)no1	102	103	-51	99
CCOCCn1ccc2c(OCC(=O)Nc3cccc([N+](=O)[O-])c3)cccc2c1=O	122	94	·	101
Cc1ccc(CSc2nnc(-c3csc(C)n3)n2C)cc1	108	94	-2	108
Cc1ccc(-n2ncc(C(=O)NC3CCN(Cc4ccccc4)CC3)c2C2CCN(C(=O)OC(C)(C)C)CC2)cc1C	101	74	·	111
CCOC(=O)C1CCN(C(=O)Cn2cnc3ccc(S(=O)(=O)N4CCC(C)CC4)cc3c2=O)CC1	·	·	-10	100
Cc1ccc(CN(C)Cn2nc(-c3c[nH]c4ccccc34)n(-c3ccc(Cl)cc3)c2=S)o1	112	82	-22	·
O=C(O)c1ccc(S(=O)(=O)N2CCCC3CCCCC32)cc1 (stereo not given)	111	90	·	97
O=C(CSc1nnc2n1CCCCC2)N1CCCC1c1ccc2c(c1)OCCCO2 (stereo not given)	93	92	-24	·
Cc1oc(-c2ccc(Cl)cc2)nc1CSCC(=O)NCc1ccccc1Cl	113	90	·	102
COc1ccccc1NC(=O)NC1(C(=O)N2CCc3ccccc32)CCCCC1	93	72	-15	104
O=c1c2ccccc2n2c(=O)n(Cc3ccccc3)nc2n1CCc1ccccc1	·	·	-16	98
COC(=O)COc1ccc(S(=O)(=O)Nc2cc(OC)ccc2OC)cc1	97	97	-4	97
O=C(O)Cn1ccnc1	95	86	-10	100
CC(NC(=O)c1ccc(NC(=O)N2CCCCc3ccccc32)cc1)c1ccc2c(c1)OCCO2 (stereo not given)	·	·	12	107
O=S(=O)(Nc1ccc(Cn2cnc(-c3nc(-c4ccc(F)cc4)no3)c2)cc1)c1ccc(F)c(Cl)c1	·	·	-38	105
Cc1ccc(-n2nc(C)cc2/N=C/N(C)C)cc1	94	96	-18	·
(next part)
SMILES	Sa growth inh	Sa growth inh second temp	HCMV UL50-53 inh	GIV-Gai inh
O=C(O)Cc1ccc(OC(F)(F)F)cc1	91	97	-1	97
O=C(COC(=O)C1CCCCN1S(=O)(=O)c1ccccc1)Nc1ccc(OC(F)F)cc1 (stereo not given)	103	87	10	·
CCOC(=O)c1oc2ccccc2c1Cn1cc(S(=O)(=O)N2CCCC2)ccc1=O	89	91	-30	·
COc1ccccc1N1CCN(CCCNS(=O)(=O)c2ccc(-c3cc(C)no3)s2)CC1	97	75	-63	100
NC1=NC(=O)CC(C(=O)Nc2cccc3ccccc23)S1 (stereo not given)	89	81	·	94
C=C(C)c1ccccc1NC(=O)Cn1c(=O)sc2ccccc21	123	115	0	97
O=C(O)/C(=C/c1ccc2c(c1)OCO2)NC(=O)c1ccccc1Br	99	95	·	102
C=CCN1C(=O)C2(C(C#N)=C(N)Oc3n[nH]c(COC)c32)c2ccccc21 (stereo not given)	97	87	13	108
O=C(NCc1ccccc1)c1ccc2cn[nH]c2c1	107	91	-6	105
Cc1n[nH]c(=O)c2c1nnn2Cc1ccccc1F	86	76	-14	102
O=C(NCc1ccccc1)c1cccc(Cl)c1	96	78	-14	102
CCC(C)Nc1nc(OC(C(F)(F)F)C(F)(F)F)nc(N(CC)CC)n1 (stereo not given)	100	92	-2	94
O=C(Nc1ccc(Cl)cc1)c1ccc(-n2nnc3cccnc32)cc1	·	·	-34	123
COc1ccccc1COn1c(=O)c(-c2ccco2)[n+]([O-])c2ccccc21	96	98	-13	109
CCC(C)NC(=O)NC(c1ccccc1)c1nnc(-c2ccc(Cl)cc2)o1 (stereo not given)	·	·	12	102
O=C(c1cncc(NS(=O)(=O)c2ccc(F)cc2)c1)N1CCc2ccccc21	·	·	-26	99
O=C(c1ccccc1/S(=N/S(=O)(=O)c1ccccc1)N1CCOCC1)N1CCOCC1 (stereo not given)	69	87	-47	103
c1ccc2c(NCCCN3CCOCC3)c3c(nc2c1)CCC3	98	84	-9	100
CC(C)(C)C1CCc2onc(C(=O)Nc3sc4c(c3C#N)CCCC4)c2C1 (stereo not given)	89	103	1	103
CC(=O)Nc1ccc(N2CC(C)(C)C2=O)cc1	·	·	-8	100

By substructure: those above with bromine.
SMILES	Sa growth inh	Sa growth inh second temp	HCMV UL50-53 inh	GIV-Gai inh
CC(C)SCC(=O)Nc1ccc(Br)cc1	93	93	-3	104
O=C(NCc1ccc(Br)cc1)C1CCN(c2ccc(-c3ccc(F)cc3)nn2)CC1	·	·	-17	101
O=C(O)/C(=C/c1ccc2c(c1)OCO2)NC(=O)c1ccccc1Br	99	95	·	102

The list continues.
SMILES	Sa growth inh	Sa growth inh second temp	HCMV UL50-53 inh	GIV-Gai inh
COc1ccc(NC(=O)Cn2c(=O)oc3cc(S(=O)(=O)NCc4ccccc4)ccc32)c(OC)c1	125	76	·	101
Cc1ccc(-c2cc(C(=O)OCC(=O)Nc3nc(C)c(Cl)cc3Cl)c3ccccc3n2)o1	98	90	-7	·
Cc1noc(C)c1C(=O)N1CCC(C(=O)c2ccc(F)cc2F)CC1	104	110	3	105
COC(=O)C12CC3CC(C)(CC(C)(C3)C1)C2	114	84	-16	·
Cc1ccc(S(=O)(=O)NCCOc2nc(N3CCOCC3)nc(N3CCOCC3)n2)cc1	109	94	-3	106
CCOC(=O)c1cc2c(=O)[nH]c3ccccc3c2s1	90	96	-14	104
CC1(C)Cc2[nH]c(=O)c(C#N)cc2CS1	77	81	-31	100
O=C(Cn1cnc(S(=O)(=O)N2CCCCC2)c1)Nc1cccnc1	·	·	-33	101
CCCc1cc(=O)oc2c3c(ccc12)OCN(Cc1ccc(OC)cc1)C3	113	82	·	106
